Screening results from PubChem BioAssay.
CCHFV vOTU inh: CCHFV vOTU protease inhibitors, primary screen, biochemical, Pep-AMC substrate, fluorescence; Crimean-Congo hemorrhagic fever virus L polyprotein viral ovarian tumor (vOTU) protease …; inhibition, % at 11.5 µM; actives 0.55% (n = 370,000); AID 651958, 2012; in the data active means inhibition above about 30%; further: 0% = vehicle wells with enzyme and 100% = no enzyme wells
BoNT-A LC inh2: BoNT/A light chain protease inhibitors, primary screen, biochemical, flow cytometry, MLPCN library | Botulinum neurotoxin type A light chain protease (Clostridium botulinum A str. ATCC 3502) | multiplex microsphere protease substrate cleavage | inhibition, % at 10 µM | actives 0.17% (n = 360,000) | AID 588499, 2011; in the data active means inhibition above about 30%; further: plate controls were buffer without enzyme for full effect and enzyme alone for no effect
Mtb BioA inh: M. tuberculosis BioA enzyme inhibitors, primary screen, biochemical, plate reader, single point, HTS | inhibition, % at 9.99 µM | 7,8-diaminopelargonic acid synthase BioA (Mycobacterium tuberculosis) | actives 0.096% (n = 360,000) | purified M. tuberculosis BioA enzyme; in the data active means inhibition above about 40%
FadD28 binding: inhibitors of FadD28 bisubstrate probe binding, primary screen, biochemical, fluorescence polarization, single point; Mycobacterium tuberculosis FadD28 fatty-acid-AMP ligase; inhibition, % at 12.5 µM; actives 0.22% (n = 360,000); AID 588549, 2011; in the data active means inhibition above about 8.5%, passing the limit was not always enough
PrPC TRFRET: inhibitors of human cell surface prion protein PrPC, primary screen, cell-based, TR-FRET; TR-FRET read-out; actives 0.43% (n = 370,000); inhibition, % at 13.8 µM; Major prion protein (Homo sapiens), P04156; in the data active means inhibition above about 24%; further: 0% = median of the test wells and 100% = reference compound wells
Mtb UGM inh: M. tuberculosis UGM enzyme inhibitors, primary screen, biochemical, fluorescence polarization, single point; inhibition, % at 10 µM; AID 504406, 2011; purified UGM, fluorescence polarization probe displacement; UDP-galactopyranose mutase (Mycobacterium tuberculosis (strain ATCC 25618 / H37Rv)), …; actives 0.06% (n = 320,000); in the data active means inhibition above about 10%, passing the limit was not always enough
Target sequence (P9WIQ1 whole entry, looked up): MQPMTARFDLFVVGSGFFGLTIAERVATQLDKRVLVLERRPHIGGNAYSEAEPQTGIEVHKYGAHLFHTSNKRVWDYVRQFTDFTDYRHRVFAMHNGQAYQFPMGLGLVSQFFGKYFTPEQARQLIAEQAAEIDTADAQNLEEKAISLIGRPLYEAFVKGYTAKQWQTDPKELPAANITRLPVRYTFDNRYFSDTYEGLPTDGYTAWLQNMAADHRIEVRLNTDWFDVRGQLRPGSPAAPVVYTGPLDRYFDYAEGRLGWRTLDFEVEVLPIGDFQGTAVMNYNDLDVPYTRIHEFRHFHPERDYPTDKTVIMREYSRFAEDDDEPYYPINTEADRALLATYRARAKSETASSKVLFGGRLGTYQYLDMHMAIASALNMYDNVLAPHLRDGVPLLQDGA
Active calls of the source: *; x = no result given; & = joins results of further samples. A portion of the library; count on the stated rates, not on these rows.

Structure	CCHFV vOTU inh	BoNT-A LC inh2	Mtb BioA inh	FadD28 binding	PrPC TRFRET	Mtb UGM inh
CN(C)CCCN1c2ccccc2CCc2ccc(Cl)cc21	0	-0.5	-7.0	-2.1	-12	1.6
O=[N+]([O-])c1c(Cl)c(Cl)c(Cl)c(Cl)c1Cl	-11	-1.3	-0.7	-1.8	-4	x
COC(=O)Cc1cc(=O)oc2c(C)c(O)ccc12	-250	1.5	-0.6	-4.2	0	-0.7
C[N+]1(C)CC[C@H](OC(=O)[C@@](O)(c2ccccc2)C2CCCC2)C1	-1	-0.8	-0.5	-0.1	-3	-1.4
CCOC(=O)c1c(-c2ccccc2)oc2ccc(OC(=O)N(C)C)cc12	-2	-6.7	0.0	-2.9	-4	-0.4
CN1CCc2cccc3c2[C@@H]1Cc1ccc(O)c(O)c1-3	x	-1.8	-0.4	-3.4	x	x
O=C(O)/C=C/C(=O)O	-1	0.2	-0.6	-1.7	-4	x
CNc1nccc(-c2ccc(Cl)cc2)c1C#N	-58	-0.2	x	-2.2	4	-0.8
C[C@H]1O[C@H](O[C@H]2[C@H](O)[C@@H](O)[C@@H](O[C@H]3[C@H](O)[C@@H](O)C(O)O[C@@H]3CO)O[C@@H]2CO)[C@H](O)[C@@H](O)[C@@H]1N[C@H]1C=C(CO)[C@@H](O)[C@H](O)[C@H]1O (stereo partly specified)	x	x	x	x	x	5.8
CN(C)CCOC(c1ccccc1)c1ccccc1 (tested in a mixture with another compound)	-3	0.0	0.5	-2.5	-8	-1.6
CN1CC[C@]23c4c5ccc(O)c4OC2[C@H](O)C=CC3[C@H]1C5 (stereo partly specified)	-1	0.0	-0.6	0.3	5	x
CC(C)OC(=O)C(C)(C)Oc1ccc(C(=O)c2ccc(Cl)cc2)cc1	-1	-0.6	-1.3	-3.9	3	2.9
CCOC(=O)c1c(N)n(Cc2ccccc2)c2nc3ccccc3nc12	-128	3.6	2.1	-0.1	2	0.2
Cc1cc(NC(C)C)n2c(nc3ccccc32)c1C#N	-39	0.3	2.0	-2.0	-4	1.3
CN1c2ccccc2-c2nc3ccccc3n2C1c1ccco1 (stereo unspecified)	-208	0.1	1.0	-3.9	6	-1.0
CC(C)(C)c1ccc(C(O)CCCN2CCC(C(O)(c3ccccc3)c3ccccc3)CC2)cc1 (stereo unspecified)	0	-0.5	-0.8	-1.6	-7	-2.3
O=C(O)Cc1cccc2ccccc12	-1	-0.3	-1.1	-2.7	3	2.2
CC(C)(C)C(=O)Nc1ccc(-c2cn3cccnc3n2)cc1	-375	0.0	0.7	-0.6	-6	-0.1
Cc1cc(C)c2c(c1)NC(c1cc3c(cc1Br)OCO3)C1CC=CC21 (stereo unspecified)	-1	3.8	-2.7	-1.3	-1	0.4
CC(C)c1c(C(=O)Nc2ccccc2)c(-c2ccccc2)c(-c2ccc(F)cc2)n1CC[C@@H](O)C[C@@H](O)CC(=O)O	5	-1.7	2.7	-2.9	1	x
Cc1c(C)c2c(OCC(=O)NCCCO)cc3c(c2oc1=O)CCC(C)(C)O3	-292	0.8	-0.7	x	-3	-2.3
CN1Cc2c(N)cccc2C(c2ccccc2)C1 (stereo unspecified)	-3	0.5&0.1	-2.5&-5.8	-4.8&-0.5	-4	5.4
COc1ccc(NC(=O)C2Cc3c(-c4ccc5c(c4)OCO5)ccnc3O2)cn1 (stereo unspecified)	-12	-0.3	7.4	-0.9	7	x
S=C1NCCN1	1	-1.2	0.0	1.9	-3	-0.7
CN1CCc2cccc3c2[C@H]1Cc1ccc(O)c(O)c1-3	11&-4	-2.1&-2.5&-1.6	-1.2&0.5&1.4	-1.7&-1.4&-1.5	-10&-16	-1.8&0.6
CCC(C)(C)C(=O)O[C@H]1C[C@@H](C)C=C2C=C[C@H](C)[C@H](CC[C@@H]3C[C@@H](O)CC(=O)O3)[C@H]21	4	-0.1	-0.4	-0.6	5	-0.4
CN1[C@@H]2CC(OC(=O)[C@H](CO)c3ccccc3)C[C@H]1[C@@H]1O[C@@H]12 (stereo partly specified)	-2&2&0&4	-0.6&-0.5&1.1&-0.2	-0.2&-5.1&0.0&3.0	-3.3&0.1&0.4&1.1	-4&-2&2&-1	-2.6&-1.2&-0.8
CCOC(=O)CCc1c(C)c(C#N)c2[nH]c3ccccc3n2c1=O	-48	-0.2	-1.1	1.6	-5	2.0

Among those listed so far, 8 have nitrogen in an aromatic ring.
Structure	CCHFV vOTU inh	BoNT-A LC inh2	Mtb BioA inh	FadD28 binding	PrPC TRFRET	Mtb UGM inh
CNc1nccc(-c2ccc(Cl)cc2)c1C#N	-58	-0.2	x	-2.2	4	-0.8
CCOC(=O)c1c(N)n(Cc2ccccc2)c2nc3ccccc3nc12	-128	3.6	2.1	-0.1	2	0.2
Cc1cc(NC(C)C)n2c(nc3ccccc32)c1C#N	-39	0.3	2.0	-2.0	-4	1.3
CN1c2ccccc2-c2nc3ccccc3n2C1c1ccco1 (stereo unspecified)	-208	0.1	1.0	-3.9	6	-1.0
CC(C)(C)C(=O)Nc1ccc(-c2cn3cccnc3n2)cc1	-375	0.0	0.7	-0.6	-6	-0.1
CC(C)c1c(C(=O)Nc2ccccc2)c(-c2ccccc2)c(-c2ccc(F)cc2)n1CC[C@@H](O)C[C@@H](O)CC(=O)O	5	-1.7	2.7	-2.9	1	x
COc1ccc(NC(=O)C2Cc3c(-c4ccc5c(c4)OCO5)ccnc3O2)cn1 (stereo unspecified)	-12	-0.3	7.4	-0.9	7	x
CCOC(=O)CCc1c(C)c(C#N)c2[nH]c3ccccc3n2c1=O	-48	-0.2	-1.1	1.6	-5	2.0

Reformatted with values under each structure: part of the list above
Values run as follows: CCHFV vOTU inh, BoNT-A LC inh2, Mtb BioA inh, FadD28 binding, PrPC TRFRET, Mtb UGM inh
- CCC(C)(C)C(=O)O[C@H]1C[C@@H](C)C=C2C=C[C@H](C)[C@H](CC[C@@H]3C[C@@H](O)CC(=O)O3)[C@H]21
  4, -0.1, -0.4, -0.6, 5, -0.4
- CN1[C@@H]2CC(OC(=O)[C@H](CO)c3ccccc3)C[C@H]1[C@@H]1O[C@@H]12 (stereo partly specified)
  -2&2&0&4, -0.6&-0.5&1.1&-0.2, -0.2&-5.1&0.0&3.0, -3.3&0.1&0.4&1.1, -4&-2&2&-1, -2.6&-1.2&-0.8
